# High-throughput results: PubChem, National Center for Advancing Translational Sciences (NCATS)
# RE007 growth inh = qHTS Assay for Inhibitors of the HIV-1 protein Vpr; S. pombe RE007 Vpr strain, BacTiter-Glo ATP luminescence, 24 h; control for the full effect not named in the record; Potency, µM (top dose mostly 92.2 µM), for inactives: at the top dose activity change, negative = less growth; 0.21% of 360,000 active; AID 651644, 2012; active = well fitted falling curve with a large enough effect; inconclusive = small, poorly fitted or top-dose-only effect; inactive = no such curve, though single readings can be large or run the other way;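 further: on the % scale 0 is the no-effect control and ±100 the full control effect; nearly all actives have a fitted effect of over 50% in size; the assay follows cell death caused by Vpr and the record does not say whether a fall means rescue or toxicity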
#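 Fission yeast RE007 carrying one integrated HIV-1 vpr copy, seeded at OD 0.01 in PMG+AL medium with 23 nL pinned compound. Grown 24 h at 30 degrees; viability read by BacTiter-Glo luminescence after 5 min.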
# StopGo reporter = High Throughput Screening for Foot and Mouth Disease Virus Antivirals; AID 1159524, 2015; Potency, µM (series often up to 57.9 µM), inactives show at the top dose signal change, negative = less light; 1.2% of 410,000 active; human cells with a luciferase reporter of 2A StopGo recoding; control for the full effect not named in the record; active = well fitted falling curve with a large enough effect; inconclusive = small, poorly fitted or top-dose-only effect; inactive = no such curve, though single readings can be large or run the other way; tested in HEK293T cells; further: on the % scale 0 is the no-effect control and ±100 the full control effect; nearly all actives have a fitted effect of over 45% in size; luciferase light after 4 h
# Lassa entry inh = qHTS for Inhibitors of binding or entry into cells for Lassa Virus | Lassa virus pseudotype entry inhibition, cell reporter; control for the full effect not named in the record | Potency, µM (series often up to 37.9 µM), for the others: top-dose activity change, negative = inhibition, actives largely listed as inhibitors | 1.2% of 300,000 active; active means well fitted inhibition curve with a large enough effect; inconclusive means small, poorly fitted or top-dose-only effect, or effect the other way; inactive means flat fitted curve, though single readings scatter; tested in HEK293 cells; further: on the % scale 0 is the no-effect control and ±100 the full control effect; nearly all actives have a fitted effect of over 50% in size; luciferase read-out
# NS1 function inh = qHTS Assay for Inhibitors of Influenza NS1 Protein Function; AID 2326, 2010; Potency, µM (top dose mostly 46.1 µM), for inactives: top-dose activity, positive = more growth; S. cerevisiae slowed by influenza A NS1, growth recovery by OD600; 0.4% of 270,000 active; active means well fitted rising curve with a large enough effect; inconclusive means small, poorly fitted or top-dose-only effect; inactive means no such curve, though single readings can be large or run the other way; further: nearly all actives have a fitted effect of over 50% in size
#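 Compounds were scored for reversing the slow growth caused by influenza A NS1 in S. cerevisiae, measured by optical density at 600 nm. Assay medium contained 2% galactose at pH 6.0; NS1-free yeast of the same strain were the positive control.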
# SARS PLP yeast = qHTS of Yeast-based Assay for SARS-CoV PLP | S. cerevisiae expressing SARS-CoV PLpro, growth rescue; control for the full effect not named in the record | Potency, µM (doses to about 32.9 µM), inactives show top-dose activity, positive = growth rescue | 0.19% of 330,000 active | AID 485353, 2010; active means well fitted rising curve with a large enough effect; inconclusive means small, poorly fitted or top-dose-only effect; inactive means no such curve, though single readings can be large or run the other way; further: 0% is about no effect; nearly all actives have a fitted effect of over 55% in size; growth read by luminescence after 48 h
# Cruzain inh noDet = qHTS Assay for Promiscuous and Specific Inhibitors of Cruzain (without detergent). Cruzipain (Trypanosoma cruzi), P25779. purified cruzain, Z-FR-AMC fluorescence, no detergent. Potency, µM, inactives show max response, negative = inhibition, hits mostly inhibitors. 2.3% of 200,000 active. AID 1476, 2009;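 further: plate controls were enzyme without inhibitor for no effect and buffer without enzyme for full effect; nearly all actives have a fitted effect of over 40% in size; top concentration of the series not given in the record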
# Target sequence (P25779 123-467 limits assumed): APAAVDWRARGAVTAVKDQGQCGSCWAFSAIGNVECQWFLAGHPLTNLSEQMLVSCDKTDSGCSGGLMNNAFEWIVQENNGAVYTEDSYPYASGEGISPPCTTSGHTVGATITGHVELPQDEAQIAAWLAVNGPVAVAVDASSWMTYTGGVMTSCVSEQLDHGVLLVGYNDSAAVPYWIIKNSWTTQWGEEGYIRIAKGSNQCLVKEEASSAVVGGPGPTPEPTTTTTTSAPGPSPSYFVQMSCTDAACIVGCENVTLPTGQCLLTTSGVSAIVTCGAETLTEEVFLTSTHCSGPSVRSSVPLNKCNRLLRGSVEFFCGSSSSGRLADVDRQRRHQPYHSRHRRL
#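 Purified cruzain at 1.5 nM, pre-incubated 15 min with compound at room temperature in 100 mM sodium acetate pH 5.5, 5 mM DTT, 0.00005% Triton X-100. Reaction started with 2 uM Z-FR-AMC; AMC fluorescence increase over 60 s gives rate.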
# MARV entry inh = qHTS for inhibitors of binding or entry into cells for Marburg Virus. Marburg virus pseudotyped entry inhibition, cell reporter; control for the full effect not named in the record; about a third of the inactives were read at about 46 µM. Potency, µM (top dose mostly 37.8 µM), inactives show top-dose activity change, negative = inhibition, usual class: inhibitors. 1.8% of 300,000 active. AID 540276, 2011; active = well fitted inhibition curve with a large enough effect; inconclusive = small, poorly fitted or top-dose-only effect, or effect the other way; inactive = flat fitted curve, though single readings scatter; tested in HEK293 cells; about a fifth of its hits are not listed in these tables; further: on the % scale 0 is the no-effect control and ±100 the full control effect; luciferase read-out
# Cruzain Triton = qHTS Assay for Promiscuous and Specific Inhibitors of Cruzain (with detergent); purified cruzain, Z-FR-AMC fluorescence, 0.01% Triton; Potency, µM, without a hit: max response, negative = inhibition, actives largely listed as inhibitors; 0.43% of 200,000 active;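 further: plate controls were neutral wells for no effect and buffer without enzyme for full effect; nearly all actives have a fitted effect of over 40% in size; top concentration of the series not given in the record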
#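 Cysteine protease activity tested under reducing, mildly acidic conditions (100 mM sodium acetate pH 5.5, 5 mM DTT) plus 0.01% Triton X-100. Cruzain 1.5 nM; substrate Z-FR-AMC 2 uM; 15 min compound preincubation at room temperature.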
# Numbers without * were called inactive; u = inconclusive; x = not tested or not shown; & = joins results of further samples; [ ] = dose if it differs, or a comment. Unless noted, the call rests on the fitted dose curve; in most records, active means well fitted curve in the direction sought with a large enough effect; inconclusive means small, poorly fitted or top-dose-only effect, or another doubt; inactive means no such curve, though single readings can be large; an effect the other way counts as inactive or inconclusive. Potency means the concentration at half of the fitted maximal effect.
canonical_smiles | RE007 growth inh | StopGo reporter | Lassa entry inh | NS1 function inh | SARS PLP yeast | Cruzain inh noDet | MARV entry inh | Cruzain Triton
COc1ccc(NC(=O)c2ccc(Br)o2)c([N+](=O)[O-])c1 | -1.7% | 19.0% | -8.8% | 3.4% | -2.0% | -27.4% | -0.8% | -0.1%
O=C(NCc1ccco1)C(c1ccccc1F)N(Cc1cccnc1)C(=O)Cn1nnc2ccccc21 (stereo unspecified) | 3.8% | -8.1% | -20.6% | -9.5% | -0.7% | -2.2% | u | 0.9%
Cc1ccc(C2CC(=O)Nc3cc4c(cc32)OCCO4)s1 (stereo unspecified) | 5.9% | x | -24.8% | -6.6% | -6.3% | -2.5% | -26.9% | -3.5%
CC(C)(Oc1ccc(Cl)cc1)C(=O)NC1CC1 | 8.8% | 33.0%[activator] | -2.6% | x | 4.0% | x | u | x
CCOC(=O)/C(=C/C=C1\Sc2cc(C)c(C)cc2N1CC)C(C)=O | -6.8% | u | u | 4.4% | 0.7% | x | u | x
O=C(Cc1ccc(Cl)c(Cl)c1)Nc1ccc2[nH]c(=O)[nH]c2c1 | 2.0% | -6.7% | -14.5% | x | -3.6% | x | 0.5%[46.1 µM] | x
COc1ccc(-c2cc(C(=O)N(C)Cc3nc4ccccc4c(=O)[nH]3)c3ccccc3n2)cc1OC | -0.3% | -17.2% | u | x | 2.7% | x | u | x
COc1ccc(S(=O)(=O)NCC(=O)N(CC(=O)NCc2ccccc2)Cc2ccco2)cc1 | -10.7% | 7.2% | -18.1% | -13.2% | -0.5% | x | -5.7%[46.1 µM] | x
O=C(COc1ncnc2sccc12)Nc1cccc(S(=O)(=O)N2CCOCC2)c1 | 0.1% | -4.3% | -4.9% | x | -1.2% | x | u | x
CCOc1ccc(C(=O)NCC(=O)OCCCC(=O)c2ccc(F)cc2)cc1OCC | 0.5% | -3.4% | -4.3% | x | 4.1% | x | 4.3% | x
Cc1nc2ncc(Br)cc2[nH]1 | -1.8% | -12.9% | 4.4% | -11.4% | 0.9% | 4.5% | u | -3.4%
O=C1/C(=C/c2ccc(Br)cc2)Oc2cc(O)ccc21 | -17.8% | 12.7% | 20.0%[46.1 µM] | -57.3% | -9.5% | x | u | x
Nc1ccc(-c2cc(-c3cccc(N)c3)nc(-c3ccccc3)n2)cc1 | x | -3.4% | -9.7% | u | -4.3% | -17.4% | 3.3% | -13.9%
CC1(C)CC(=O)c2cc(NC(=O)c3ccc(F)cc3)c(=O)oc2C1 | 0.8% | 13.1% | u | -0.4% | 0.7% | x | 4.1%[46.1 µM] | x
S=C(NCCCN1CCOCC1)NC1CC1 | 2.2% | 9.8% | x | 1.5% | 0.0% | x | x | x
Cc1ccccc1C(=O)NNC(=O)/C=C\C(=O)O | 5.6% | -17.1% | x | -0.3% | -1.8% | x | x | x
CCOC(=O)C(NCc1ccccn1)(NC(=O)c1cccnc1)C(F)(F)F (stereo unspecified) | 11.5% | -0.8% | -2.8% | 1.5% | 2.7% | 0.5% | -1.8% | 7.3%
CC1(C)Cc2c(sc3nc4n(c(=N)c23)CCCCC4)CO1 | 10.8% | 19.3% | 0.2% | -1.6% | 0.0% | 1.0% | 27.2%&27.2% | -0.1%
O=C(COC(=O)c1cnccn1)Nc1ncc(C(F)(F)F)cc1Cl | 2.4% | -7.4% | -3.1% | x | 0.8% | x | 2.3% | x
O=C(Nc1cccc(C(=O)Nc2ccc(S(=O)(=O)O)c3cc(S(=O)(=O)O)cc(S(=O)(=O)O)c23)c1)Nc1cccc(C(=O)Nc2ccc(S(=O)(=O)O)c3cc(S(=O)(=O)O)cc(S(=O)(=O)O)c23)c1 | x | -13.3%&-16.1% | u | -5.2% | x | -5.3%&-2.4% | u | -6.6%&-1.0%
COc1ccc(N2CCN(S(=O)(=O)c3ccc(OC)c(C(=O)N4CCCC4)c3)CC2)cc1 | -1.8% | 0.9% | x | -12.9% | 1.3% | x | -15.9%[46.1 µM] | x
COc1ccc(CNC(=O)CNC(c2ccccc2)c2ccccc2)cc1OC | 2.2% | 7.3% | -8.4%[46.1 µM] | -14.0% | -2.5% | x | u | x
COc1ccc(/C=N/NC(=O)CNc2n[nH]c(=O)[nH]c2=O)cc1OC | 6.3% | -8.0% | -0.8% | 0.5% | 27.3% | 9.1% | -3.6% | -3.8%
Cc1ccc(Cn2c(N)c(S(=O)(=O)c3cccs3)c3nc4ccccc4nc32)cc1 | -9.1% | 18.2% | 15.4% | 17.1% | -2.2% | -6.8% | u | -5.6%
C/C=C(/C)C(=O)Nc1cccc(C2=NOC3(C2)C[C@H](C(N)=O)N(C(=O)c2ccccc2)C3)c1 (stereo partly specified) | 0.9% | -15.0% | x | 0.7% | -1.1% | x | x | x
Cc1ccc(CNC(=O)c2ccc(-n3cccc3)cc2)cc1 | -2.3% | 9.4% | 9.9%[46.1 µM] | x | -3.3% | x | u | x
O=C(CSc1n[nH]c(-c2ccccc2O)n1)N1CCCc2ccccc21 | -3.0% | u | 4.9% | -21.3% | -4.1% | -5.9% | u | -3.2%
Cc1cc(Br)cc(Br)c1OCC(=O)NNC(=O)CCC(=O)NCc1ccccc1 | -7.1% | 49.4%[activator] | u | 3.1% | -2.7% | x | -12.3%[46.1 µM] | x
Cn1ncn2c(=O)c3c(nc12)-c1ccccc1CC31CCCC1 | 6.6% | -11.9% | -15.9% | 5.9% | 0.9% | x | -18.0%[46.1 µM] | x
Cc1ccc(C(=O)Nc2ccccc2C(=O)Nc2ccccn2)cc1Cl | 4.1% | 16.9% | 2.9% | 6.1% | -9.6% | x | 12.6µM* | x

# Some of the entries so far, field by field.
smiles: Cc1ccc(Cn2c(N)c(S(=O)(=O)c3cccs3)c3nc4ccccc4nc32)cc1
  RE007 growth inh = -9.1%; StopGo reporter = 18.2%; Lassa entry inh = 15.4%; NS1 function inh = 17.1%; SARS PLP yeast = -2.2%; Cruzain inh noDet = -6.8%; MARV entry inh = u; Cruzain Triton = -5.6%
smiles: C/C=C(/C)C(=O)Nc1cccc(C2=NOC3(C2)C[C@H](C(N)=O)N(C(=O)c2ccccc2)C3)c1 (stereo partly specified)
  RE007 growth inh = 0.9%; StopGo reporter = -15.0%; Lassa entry inh = x; NS1 function inh = 0.7%; SARS PLP yeast = -1.1%; Cruzain inh noDet = x; MARV entry inh = x; Cruzain Triton = x

# Other records follow.
canonical_smiles | RE007 growth inh | StopGo reporter | Lassa entry inh | NS1 function inh | SARS PLP yeast | Cruzain inh noDet | MARV entry inh | Cruzain Triton
Cc1ccc2c3c1C1(C(=O)N3C(C)(C)CC2C)C(C#N)=C(N)Oc2cc(O)ccc21 (stereo unspecified) | -14.4% | -4.1% | -15.8% | -44.1% | 5.4% | 23.0% | u | -9.0%
Cc1ccc2nc(NC(=O)CN3C(=O)NC4(CCCCC4)C3=O)sc2c1 | -19.0% | 24.2% | 4.9% | x | 8.0% | x | 5.1% | x
Cc1cc(C)cc(NC(=S)NCc2cccnc2)c1 | -15.7% | 31.3%[activator] | 13.6% | -0.8% | 2.1% | 1.6% | 16.2% | -1.2%
Cc1nnc(NC(=O)c2ccc3c(c2)C(=O)N(CCC(C)C)C3=O)s1 | -12.8% | 18.9% | -3.2% | 9.1% | 4.6% | -6.3% | 23.1% | 3.9%
Cc1cc(N)cc(C)c1-c1c(Br)cc(N)cc1Br | 12.3% | u | u | x | x | x | u | x
CC(=O)Nc1ccc(C(=O)COC(=O)C2CC2)c(F)c1 | -9.1% | 27.0% | 22.8% | x | 0.3% | x | u | x
CCNC(=O)CC1SC(=Nc2ccc(Cl)cc2)N(CC)C1=O (stereo unspecified) | 9.0% | 81.3%[activator] | 0.2% | -5.0% | 7.8% | 3.5% | 0.9% | 1.3%
COc1ccc(CC(NC(C)=O)C(=O)NC2CCN(C(=O)C3CCCCC3)CC2)cc1OC (stereo unspecified) | 3.7% | -9.0% | -4.9%[46.1 µM] | 1.0% | -0.9% | x | 6.2%[46.1 µM] | x
CC1Cc2cc(-c3csc(NC(=O)Cc4ccccc4)n3)ccc2N1S(C)(=O)=O (stereo unspecified) | -6.9% | x | u | 18.6% | 15.3% | u | 10.3µM* | 5.8%
Cc1cc(C)c2oc(C(=O)Nc3c(C(=O)c4ccc(F)cc4)oc4ccccc34)cc(=O)c2c1 | x | -16.0% | u | x | x | u | u | -0.9%
CCCCOc1ncnc2c1[nH]c1ccc(F)cc12 | -10.9% | x | u | -48.9% | -2.0% | u | u | -22.6%
COc1ccc2nc3oc(C(=O)N4CCN(c5ccccc5F)CC4)cc3cc2c1 | -3.0% | 13.0% | 9.5% | -4.0% | 2.7% | 2.0% | 1.4% | 2.8%
Cc1ccc(C(=O)Nc2cc(Cl)ccc2OC(=O)c2ccc(C)cc2)cc1 | x | x | x | -23.8% | -7.1% | -2.3% | 3.2% | 1.4%
CCn1cc(C(=O)N[C@H](C(=O)O)C(C)C)c(=O)c2cc3c(cc21)OCO3 | -0.9% | -10.4% | x | 2.0% | -0.7% | x | x | x
CCN1C(=NCCOC)N[C@@H](c2ccccc2)[C@H](C(=O)OC)[C@H]1C | 0.6% | 6.7% | x | -0.8% | 4.3%&5.3% | x | 12.2%&12.2%[14.2 µM] | x
Cn1nnnc1SCCNC(=O)C1CCC(=O)N(Cc2ccccc2F)C1 (stereo unspecified) | 3.4% | -5.1% | x | 2.6% | -1.0% | x | x | x
Cc1cccc(NC(=O)C2C3CCC4C(CCC32)C4(Cl)Cl)c1 (stereo unspecified) | 25.8% | -10.0% | -23.9% | 2.7% | 0.2% | u | -0.3% | 3.4%
Cc1c(C(=O)O)c(=S)sn1CCOc1ccccc1 | 22.5% | -10.7% | 13.9% | -6.9%[9.22 µM] | 4.4% | -12.8% | 3.4%&3.4% | -2.1%

# An unsorted share of the library; overall some 4.7% were active at least once.
